Insulin prom inh: TRM-6 insulin promoter activity inhibition; TRM-6 cells (human fetal islet line), insulin promoter-eGFP reporter, imaging; reporter expression induced with tamoxifen; inhibition, % at 2 µM; 130,000 tested, 0.9% active;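 active means inhibition above the mean plus 3 SD, with well images judged a real hit on visual review, cut at about 60% in these data, passing the limit was not always enough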
HSV replic up: increases HSV replication in cells. AID 1956. maximum fold increase. 220,000 tested, 0.005% active. HSV replication augmentation in cells, fold increase;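 active means peak rise of 1.5-fold or more in the series; tested in PC3 cells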;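 further: first round at 10 µM; read as green reporter fluorescence; hits show the peak of a series up to 25 µM; 1 = signal of infected wells without compound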
GALR2 agonist: agonists of human galanin receptor 2 (GALR2); GALR2-expressing cells, agonist activation read-out; activation, %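 (tested at 5 µM)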; 140,000 tested, 0.48% active; AID 803;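 active means above mean plus 3 SD of all compounds, about 5% in these data, not always enough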;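 further: 0% = vehicle buffer wells and 100% = reference agonist at full effect; tested in CHO reporter cells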
PKD1 inh: blocks activity of human protein kinase D1; Q15139; PKD1 kinase fluorescence polarization assay; inhibition, %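 (about 10 µM by stock and volumes)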; 200,000 tested, 0.056% active;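 active means inhibition of 50% or more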;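 further: controls were vehicle for no effect and a reference inhibitor for full effect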
Target sequence (Q15139 whole entry, looked up): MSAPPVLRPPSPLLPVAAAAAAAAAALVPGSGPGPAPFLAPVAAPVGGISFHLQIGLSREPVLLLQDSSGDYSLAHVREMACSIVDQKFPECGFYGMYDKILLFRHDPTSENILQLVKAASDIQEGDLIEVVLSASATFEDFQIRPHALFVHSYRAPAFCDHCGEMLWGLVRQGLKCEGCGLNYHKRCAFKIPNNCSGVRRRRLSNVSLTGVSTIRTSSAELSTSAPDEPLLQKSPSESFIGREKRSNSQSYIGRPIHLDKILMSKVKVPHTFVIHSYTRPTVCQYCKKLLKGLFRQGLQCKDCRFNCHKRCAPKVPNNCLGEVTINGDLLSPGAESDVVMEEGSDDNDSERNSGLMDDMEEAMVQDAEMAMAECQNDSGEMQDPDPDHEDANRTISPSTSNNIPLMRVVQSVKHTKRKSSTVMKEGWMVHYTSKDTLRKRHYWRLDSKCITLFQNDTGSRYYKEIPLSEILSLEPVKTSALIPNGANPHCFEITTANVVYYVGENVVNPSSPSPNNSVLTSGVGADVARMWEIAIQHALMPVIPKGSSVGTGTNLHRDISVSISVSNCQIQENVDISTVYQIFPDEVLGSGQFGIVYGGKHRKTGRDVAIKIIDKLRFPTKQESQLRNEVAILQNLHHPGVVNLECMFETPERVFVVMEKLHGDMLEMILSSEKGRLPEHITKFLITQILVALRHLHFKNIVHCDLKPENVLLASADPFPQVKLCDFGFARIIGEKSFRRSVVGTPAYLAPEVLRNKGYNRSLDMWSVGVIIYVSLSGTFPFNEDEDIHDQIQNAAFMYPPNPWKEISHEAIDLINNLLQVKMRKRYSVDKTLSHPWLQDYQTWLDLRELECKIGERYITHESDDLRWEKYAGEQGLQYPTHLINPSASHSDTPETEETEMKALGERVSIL
RGS16-Gao HTS: RGS16-Galphao interaction regulator (human); bead-based flow cytometry RGS16-Galphao binding, fluorescence; actives lie on both sides; 220,000 tested, 0.38% active; O15492+P09471; binding response (% of control), % at 10 µM; AID 1441;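 active means below 25% or above 175%, edge rows of some plates excepted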;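 further: Galphao activated by GDP with aluminum fluoride before binding; 100% = wells without compound and 0% = beads without RGS; some results beyond the cut were filed as inactive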
Insulin prom inh cell count: further read-out of Insulin prom inh, marked with its call; normalized cell count, %; measured here: cell count, toxicity; reference of the scale not given here;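 cells exposed to compound for 48 h; stained nuclei by imaging scaled within each plate; lower means fewer cells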
HSV replic up primary fold: also measured in HSV replic up; calls as there; fold increase; compound at 10 µM; measured here: primary screen fold increase 10 uM; tested in PC3 cells;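 GFP signal in the first replicate; 1 = infected wells without compound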
Starred values were filed as active, the others as inactive; i = inactive; / = not tested or not shown.

Codes – A = Insulin prom inh; B = Insulin prom inh cell count; C = HSV replic up; D = HSV replic up primary fold; E = GALR2 agonist; F = PKD1 inh; G = RGS16-Gao HTS
CC(C)N1CCN(Cc2ccsc2)CC1CCO (configuration not stated)
  A = / | B = / | C = i | D = 0.66 | E = / | F = -3 | G = 106
Cc1nnc(SCc2cccc(CSc3nnc(C)s3)c2)s1
  A = 15 | B = 105 | C = i | D = 1.1 | E = -1.4 | F = -3 | G = 101
CCOC(=O)Cc1csc(NC(=O)CC(C)(C)C)n1
  A = 26 | B = 96 | C = i | D = 1.2 | E = -1.4 | F = -3 | G = 98
CCC(C)NC(=O)CC(C)C (configuration not stated)
  A = / | B = / | C = i | D = 0.96 | E = / | F = / | G = 103
CCOC(=O)N1CCC(N2CCN(CCC(C)C)C(CCO)C2)CC1 (configuration not stated)
  A = / | B = / | C = i | D = 1 | E = / | F = -8 | G = 115
CCOC(=O)N1CCN(c2c(NCCN3CCCCC3CC)c(=O)c2=O)CC1 (configuration not stated)
  A = / | B = / | C = i | D = 1 | E = -1.1 | F = 1 | G = 21
Cc1ccc(C(C(=O)Nc2ccc3c(c2)OCO3)N(C)C(=O)Cc2c[nH]c3ccccc23)cc1 (configuration not stated)
  A = 7 | B = 87 | C = i | D = 0.92 | E = -1.3 | F = -5 | G = 37
CCCc1cc(=O)[nH]c(SCc2nc3ccc([N+](=O)[O-])cc3[nH]2)n1
  A = 19 | B = 127 | C = i | D = 0.96 | E = 0.7 | F = -10 | G = 108
COc1ccc(CNC(=O)CCCn2nc(C)c([N+](=O)[O-])c2C)cc1
  A = -21 | B = 129 | C = i | D = 0.95 | E = -0.9 | F = -15 | G = 103
CCOc1ccc(C(c2c(O)nc(SC)n(C)c2=O)c2c(O)nc(SC)n(C)c2=O)cc1
  A = 3 | B = 100 | C = i | D = 0.94 | E = -2.3 | F = -14 | G = 92
O=C(c1cccs1)N1CCN(S(=O)(=O)c2ccc(F)cc2)CC1
  A = -11 | B = 148 | C = i | D = 0.96 | E = / | F = 5 | G = 103
CCC(C)C(NC(=O)c1ccccc1NC(=O)c1ccco1)C(=O)NNC(=O)c1ccncc1 (configuration not stated)
  A = / | B = / | C = i | D = 1.1 | E = / | F = / | G = 94
Cc1nc(-c2ccc(NC(=O)C3CCCCC3)cc2)cs1
  A = 0 | B = 136 | C = i | D = 0.69 | E = -2.1 | F = -6 | G = 100
CCC(C(=O)O)N1C(=O)c2ccccc2C1=O (configuration not stated)
  A = -8 | B = 248 | C = i | D = 1 | E = -1.8 | F = -1 | G = 100
Cc1ccc2nsnc2c1S(=O)(=O)NCc1cccnc1
  A = 64 | B = 88 | C = i | D = 0.9 | E = -2.6 | F = -11 | G = 95
O=C(Nc1cc(SCCO)cc([N+](=O)[O-])c1)c1ccco1
  A = -6 | B = 105 | C = i | D = 0.98 | E = -0.5 | F = 3 | G = 108
CC(C)c1ccc(C(=O)NCCCN(C)C)cc1
  A = -7 | B = 62 | C = i | D = 0.9 | E = -0.5 | F = -11 | G = 130
O=C(NNS(=O)(=O)c1ccccc1)C1CC(c2cccnc2)=NO1 (configuration not stated)
  A = / | B = / | C = i | D = 0.99 | E = / | F = 4 | G = 100
COc1ccc(CCNc2oc(COc3ccccc3F)nc2C#N)cc1OC
  A = 6 | B = 132 | C = i | D = 0.97 | E = -2.9 | F = 2 | G = 97
O=C(NC1CCCCCCC1)c1cc(COc2ccc3ncccc3c2)on1
  A = / | B = / | C = i | D = 0.84 | E = / | F = -3 | G = 102
O=C(CNC(=S)N(Cc1ccccc1F)C1CCCCC1)NCC1CCCO1 (configuration not stated)
  A = -33 | B = 96 | C = i | D = 0.83 | E = / | F = -3 | G = 104
Cc1ccc(-n2c(-c3ccccc3)cc(/C=N/NC(=O)CC#N)c2-c2ccccc2)cc1
  A = / | B = / | C = i | D = 0.95 | E = / | F = -9 | G = 101
CCCCCC(=O)Nc1nc(C)c(-c2csc(Nc3cc(Cl)ccc3OC)n2)s1
  A = -64 | B = 101 | C = i | D = 0.85 | E = 1.1 | F = -1 | G = 102
O=C(COC(=O)C1CCCCC1)Nc1ccccc1OC(F)F
  A = -122 | B = 137 | C = i | D = 0.89 | E = / | F = -2 | G = 105
CCN=C1SC(CC(=O)Nc2sc(C)c(C)c2C(=O)OC)C(=O)N1CC (configuration not stated)
  A = / | B = / | C = i | D = 1.1 | E = -1.2 | F = 5 | G = 110

Individual results from the list:
Reading for O=C(CNC(=S)N(Cc1ccccc1F)C1CCCCC1)NCC1CCCO1 (configuration not stated) under RGS16-Gao HTS: 104
Reading for CCC(C)NC(=O)CC(C)C (configuration not stated) under RGS16-Gao HTS: 103

Following part.
Codes – A = Insulin prom inh; B = Insulin prom inh cell count; C = HSV replic up; D = HSV replic up primary fold; E = GALR2 agonist; F = PKD1 inh; G = RGS16-Gao HTS
O=C(CCCN1C(=O)/C(=C\c2ccco2)SC1=S)Nc1cccc2ccccc12
  A = -4 | B = 61 | C = i | D = 1.2 | E = -1.1 | F = -9 | G = 103
O=C(C1CCN(c2ncnc3c2sc2cccc(F)c23)CC1)N1CCCC1
  A = / | B = / | C = i | D = 1 | E = / | F = / | G = 103
CN(Cc1cnn(C)c1)C(=O)c1cc2ccccc2oc1=O
  A = 17 | B = 80 | C = i | D = 0.82 | E = -1.3 | F = -6 | G = 104
CN1CCN(C(=S)NCCc2ccccc2)CC1
  A = 43 | B = 144 | C = i | D = 1.4 | E = -1.2 | F = -14 | G = 108
CCOC(=O)[C@H]1O[C@@H]1C(=O)N[C@@H](CC(C)C)C(=O)NCCC(C)C
  A = / | B = / | C = i | D = 0.76 | E = / | F = / | G = 99
CCOc1ccc(N=C/C=C/c2ccccc2)c(O)c1
  A = / | B = / | C = i | D = 0.98 | E = / | F = / | G = 100
Cc1ccc(C=C2C(Cl)=C(Cl)C(Cl)=C2Cl)cc1
  A = / | B = / | C = i | D = 1.1 | E = / | F = / | G = 89
COc1ccc(C2C(C(=O)NCCN(C)C)c3ccccc3C(=O)N2C)cc1OC (configuration not stated)
  A = 7 | B = 148 | C = i | D = 0.87 | E = -2.8 | F = -8 | G = 101
CC(=O)C1=C(O)C(=O)N(c2ccc(S(=O)(=O)Nc3nccs3)cc2)C1c1ccc([N+](=O)[O-])cc1 (configuration not stated)
  A = / | B = / | C = i | D = 0.68 | E = / | F = 0 | G = 95
COc1ccc(-c2csc3ncnc(Nc4ccc(O)cc4)c23)cc1
  A = / | B = / | C = i | D = 0.91 | E = / | F = -8 | G = 96
C#CCOCCOCCOCCNc1nc(N2CCN(C(=O)Cn3cc(CCCN=C(N)N)nn3)CC2)nc(N2CCN(C(=O)[C@H](C)n3cc(CCCN=C(N)N)nn3)CC2)n1
  A = 5 | B = 57 | C = i | D = 0.78 | E = -2.1 | F = -5 | G = 75
Cc1ccc(/C=N/n2c(-c3ccncc3)n[nH]c2=S)o1
  A = / | B = / | C = i | D = 1.1 | E = / | F = -4 | G = 105
COc1ccc(C(=O)C2CCCN(Cc3cn(C)nc3-c3ccccc3)C2)cc1F (configuration not stated)
  A = 0 | B = 118 | C = i | D = 1 | E = / | F = -4 | G = 105
Cc1cccc(CCNC(=O)C2CCCN(S(=O)(=O)c3cnc[nH]3)C2)c1 (configuration not stated)
  A = / | B = / | C = i | D = 0.92 | E = 8.1 | F = 2 | G = 81
NC1=NC2(CCCCC2)N(c2ccc(F)cc2)C(N)=N1
  A = 69 | B = 153 | C = i | D = 1 | E = -1.2 | F = -6 | G = 99
CCCn1c(SCC(=O)Nc2sc(C)c(C)c2C#N)nnc1C(C)C
  A = -13 | B = 152 | C = i | D = 1 | E = 0.4 | F = -8 | G = 75
Cc1cc(F)c(F)c(C(=O)N2CCN(C)CC2)c1Cl
  A = 26 | B = 92 | C = / | D = / | E = -2.0 | F = 2 | G = 174
COc1ccc(OC)c(N=C(C)C2=C(O)COC2=O)c1
  A = -28 | B = 134 | C = i | D = 0.85 | E = -1.2 | F = -5 | G = 52
C/C(=N\NC(=O)CSc1nc(C)cc(C)n1)c1ccc([N+](=O)[O-])cc1
  A = / | B = / | C = i | D = 0.99 | E = / | F = / | G = 97
O=C(Cc1ccsc1)N1CCc2c([nH]c3ccccc23)C1c1ccccn1 (configuration not stated)
  A = / | B = / | C = i | D = 1 | E = / | F = -11 | G = 101
COc1ccccc1NC1=Nc2cccc3cccc1c23
  A = / | B = / | C = i | D = 1 | E = / | F = / | G = 102
c1ccc(C2=Nn3c(nnc3-c3cccnc3)SC2)cc1
  A = 13 | B = 112 | C = i | D = 0.91 | E = -1.2 | F = -7 | G = 98
CN(CCC1CCCCO1)Cc1cn(C)nc1-c1ccc2c(c1)OCCO2 (configuration not stated)
  A = / | B = / | C = i | D = 0.91 | E = / | F = 1 | G = 101
Cc1ccc(NC(=S)N(CCN2CCCCC2)Cc2ccco2)cc1
  A = 7 | B = 77 | C = i | D = 0.85 | E = -0.8 | F = -5 | G = 33
CN(C)c1ccc(NC(=O)c2cc3c(=O)n4ccccc4nc3n2C)cc1
  A = 28 | B = 55 | C = i | D = 0.89 | E = 0.1 | F = -8 | G = /

Brought forward from above: 2 compounds, followed by the next part.
Codes – A = Insulin prom inh; B = Insulin prom inh cell count; C = HSV replic up; D = HSV replic up primary fold; E = GALR2 agonist; F = PKD1 inh; G = RGS16-Gao HTS
Cc1ccc(NC(=S)N(CCN2CCCCC2)Cc2ccco2)cc1
  A = 7 | B = 77 | C = i | D = 0.85 | E = -0.8 | F = -5 | G = 33
CN(C)c1ccc(NC(=O)c2cc3c(=O)n4ccccc4nc3n2C)cc1
  A = 28 | B = 55 | C = i | D = 0.89 | E = 0.1 | F = -8 | G = /
CC(=O)N(CCCN1CCOCC1)Cc1ccncc1
  A = 29 | B = 134 | C = i | D = 0.88 | E = -2.7 | F = -17 | G = 109
O=C(N/N=C\c1cc(Br)cs1)C1COc2ccccc2O1 (configuration not stated)
  A = 42 | B = 66 | C = i | D = 0.66 | E = -1.3 | F = -5 | G = 101
Nc1nc(-c2ccccc2)c(N=Nc2ccc(Cl)cc2)s1
  A = / | B = / | C = i | D = 0.91 | E = -2.0 | F = -11 | G = 101
COc1ccc(C2C(C#N)=C(/N=C/N3CCOCC3)OC3=C2C(=O)CC(C)(C)C3)cc1OC (configuration not stated)
  A = -11 | B = 104 | C = i | D = 0.94 | E = -0.1 | F = -5 | G = 107
O=C(c1ccc2c(c1)OCO2)N1CCOCC1
  A = -66 | B = 114 | C = i | D = 0.79 | E = -1.2 | F = -9 | G = 104
CCCc1cc(=O)[nH]c(SCC(=O)Nc2c(C)cccc2C)n1
  A = -10 | B = 71 | C = i | D = 1.1 | E = -1.2 | F = -1 | G = 101
CCn1cc(C2=NOC(C(=O)Nc3cccc(C(C)=O)c3)C2)c(C)n1 (configuration not stated)
  A = / | B = / | C = i | D = 0.69 | E = -1.6 | F = 12 | G = 103
CN(C)C(CNC(=O)CN1C(=O)NC2(CCc3ccccc32)C1=O)c1ccco1 (configuration not stated)
  A = 9 | B = 142 | C = i | D = 0.87 | E = -1.9 | F = 1 | G = 126
COC(=O)c1[nH]c2cccc(Cl)c2c1NC(=O)CN1CCN(CCO)CC1
  A = -86 | B = 115 | C = i | D = 1 | E = -1.0 | F = 1 | G = 85
COc1ccc(C2SCCN2S(=O)(=O)c2ccc(NC(C)=O)cc2)cc1 (configuration not stated)
  A = 9 | B = 176 | C = i | D = 0.89 | E = -0.8 | F = 1 | G = 103
CCc1cccc2c(C(=O)COC(=O)/C=C/c3ccc(O)c(OC)c3)c[nH]c12
  A = -156 | B = 127 | C = i | D = 0.86 | E = -0.2 | F = -9 | G = 93
COc1ccc(N2C(S)=C(C#N)C(=O)NC2c2ccc(OC)c(OC)c2)cc1 (configuration not stated)
  A = / | B = / | C = i | D = 0.98 | E = / | F = -7 | G = 100
CCC(C(=O)OCC(=O)Nc1cc(Cl)ccc1Cl)c1ccccc1 (configuration not stated)
  A = / | B = / | C = i | D = 1 | E = -0.4 | F = -12 | G = 101
Cc1ccc(C)c(NC(=S)NC(C)C(c2ccccc2)N2CCN(C)CC2)c1 (configuration not stated)
  A = / | B = / | C = i | D = 0.82 | E = / | F = -4 | G = 97
COc1ccc(/C=N/OCC(=O)NC(c2ccccc2)c2ccccc2)c(OC)c1
  A = 13 | B = 90 | C = i | D = 1 | E = -0.4 | F = 2 | G = 134
O=C(NCc1ccc2c(c1)OCO2)C1CCC(CNc2c(N3CCCCC3)c(=O)c2=O)CC1 (configuration not stated)
  A = / | B = / | C = i | D = 0.88 | E = -1.6 | F = -5 | G = 104
O=C(c1ccccc1F)N(Cc1ccc(F)cc1)C1CCS(=O)(=O)C1 (configuration not stated)
  A = / | B = / | C = i | D = 0.96 | E = -0.8 | F = -12 | G = 106
O=C(NCCc1ccc([N+](=O)[O-])cc1)c1ccccc1
  A = / | B = / | C = i | D = 1.1 | E = / | F = / | G = 99
